# HSD17B inh = blocks hydroxysteroid 17-beta dehydrogenase activity | hit rate 7.6% among 75,000 | Potency, µM (highest dose often 57.1 µM), for inactives: at the highest dose activity change, negative = inhibition, actives largely listed as inhibitors | recombinant HSD17B10, NADH fluorescence kinetic; many of its hits are not listed in these tables | Q99714; active means well fitted inhibition curve with a large enough effect; inconclusive means small, poorly fitted or top-dose-only effect; inactive means no such curve, though single readings can be large or run the other way;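 further: the protocol describes HADH2 (HSD17B10) and not the HSD17B4 of the title; nearly all actives have a fitted effect of over 70% in size; most hits overshoot -100% by far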
#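 Enzyme plus compound, 15 min room temperature; substrate mix added (NAD+ 1 mM, beta-hydroxybutyryl-CoA 90 uM final); plates read kinetically for NADH fluorescence. HADH2 was His-tagged, E. coli-derived, 20 nM.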
# Active calls of the source: *; ? = inconclusive; & = joins results of further samples; [ ] = dose if it differs, or a comment. On the % scale 0 is the no-effect control and ±100 the full control effect; potency means the concentration at half of the fitted maximal effect. Not all compounds are listed; rates above refer to the full screens.
# Sample of the layout (25 entries):
No.	mol	HSD17B inh
1	Cn1c2ccccc2c2c(C(=O)N3CCC4(CC3)OCCO4)cn(C3CCCC3)c(=O)c21	25µM*
2	CC[C@]1(c2cccc(O)c2)CCCCN(C)C1	-4%[25.6 µM]
3	CNP1(NC)=NC(C(F)(F)F)=NC(C(F)(F)F)=N1	-6%
4	CCCN(CCC)[C@@H]1CCc2c(OC)cccc2[C@@H]1C	9%
5	O=C(COc1ccc(Cl)cc1)NC1CN2CCC1CC2 (stereo not given)	1%
6	CCOP(=S)(OCC)SCOC(=O)NCC(=O)OC	-9%
7	CCC1=C(C)C(N2CCOCC2)=NP(N2CCOCC2)(N2CCOCC2)=N1	2%
8	CCOC(=O)C(O)(c1ccc(N(CC)S(=O)(=O)c2ccccc2)cc1)C(F)(F)F (stereo not given)	-7%
9	COc1ccc2c(c1)[C@]13CCCC[C@@H]1[C@H](C2)NCC3	4%
10	NCCc1ccc(S(=O)(=O)O)cc1[N+](=O)[O-]	3%[11.4 µM]
11	CC(C)N[C@@H](C)Cc1ccc(I)cc1	3%
12	CCCCC(CC)COC(=O)c1ccc(C(=O)OCC(CC)CCCC)c(C(=O)OCC(CC)CCCC)c1 (stereo not given)	5%
13	Clc1cccc(SC2CCNCC2)n1	13%
14	O=[N+]([O-])c1cc(-c2ccc([As](=O)(O)O)cc2)ccc1[As](=O)(O)O	13%[11.4 µM]
15	CC(=NCCN1CCCCC1)c1c(O)[nH]c(=O)[nH]c1=O	1%
16	Cc1cccc(CN(C)C)c1OC(=O)N(C)C	5%
17	COc1cc2c(cc1OC)[C@@]13CCN4C=C5CCO[C@H]6CC(=O)N2[C@@H]1[C@@H]6[C@H]5C[C@H]43	11%[11.4 µM]
18	COc1ccc(CN2CCN(c3ccccc3F)CC2)c(OC)c1	6%
19	CC(=O)c1c(C)nc2ccccc2c1N	25µM*
20	N#CCCCl	3%&2%
21	CN1CCc2cc(O)cc3c2[C@H]1Cc1ccc(O)c(O)c1-3	25µM*
22	O=C(NC(=O)c1ccccc1Cl)Nc1ccc(OC(F)(F)F)cc1	1%
23	NCCCP(=O)(O)O	-6%
24	CCN1C[C@]2(COC(=O)c3ccccc3N3C(=O)C[C@H](C)C3=O)CC[C@H](OC)[C@@]34[C@@H]5C[C@H]6[C@H](OC)[C@H]5[C@](O)(C[C@@H]6OC)[C@@](O)([C@@H](OC)[C@@H]23)[C@@H]14	34%[activator]
25	Cc1cc(N2C(=O)C3CCCN3C2c2ccc(Cl)c(Cl)c2)no1 (stereo not given)	-1%

# The listing, previewed entries included:
No.	mol	HSD17B inh
1	Cn1c2ccccc2c2c(C(=O)N3CCC4(CC3)OCCO4)cn(C3CCCC3)c(=O)c21	25µM*
2	CC[C@]1(c2cccc(O)c2)CCCCN(C)C1	-4%[25.6 µM]
3	CNP1(NC)=NC(C(F)(F)F)=NC(C(F)(F)F)=N1	-6%
4	CCCN(CCC)[C@@H]1CCc2c(OC)cccc2[C@@H]1C	9%
5	O=C(COc1ccc(Cl)cc1)NC1CN2CCC1CC2 (stereo not given)	1%
6	CCOP(=S)(OCC)SCOC(=O)NCC(=O)OC	-9%
7	CCC1=C(C)C(N2CCOCC2)=NP(N2CCOCC2)(N2CCOCC2)=N1	2%
8	CCOC(=O)C(O)(c1ccc(N(CC)S(=O)(=O)c2ccccc2)cc1)C(F)(F)F (stereo not given)	-7%
9	COc1ccc2c(c1)[C@]13CCCC[C@@H]1[C@H](C2)NCC3	4%
10	NCCc1ccc(S(=O)(=O)O)cc1[N+](=O)[O-]	3%[11.4 µM]
11	CC(C)N[C@@H](C)Cc1ccc(I)cc1	3%
12	CCCCC(CC)COC(=O)c1ccc(C(=O)OCC(CC)CCCC)c(C(=O)OCC(CC)CCCC)c1 (stereo not given)	5%
13	Clc1cccc(SC2CCNCC2)n1	13%
14	O=[N+]([O-])c1cc(-c2ccc([As](=O)(O)O)cc2)ccc1[As](=O)(O)O	13%[11.4 µM]
15	CC(=NCCN1CCCCC1)c1c(O)[nH]c(=O)[nH]c1=O	1%
16	Cc1cccc(CN(C)C)c1OC(=O)N(C)C	5%
17	COc1cc2c(cc1OC)[C@@]13CCN4C=C5CCO[C@H]6CC(=O)N2[C@@H]1[C@@H]6[C@H]5C[C@H]43	11%[11.4 µM]
18	COc1ccc(CN2CCN(c3ccccc3F)CC2)c(OC)c1	6%
19	CC(=O)c1c(C)nc2ccccc2c1N	25µM*
20	N#CCCCl	3%&2%
21	CN1CCc2cc(O)cc3c2[C@H]1Cc1ccc(O)c(O)c1-3	25µM*
22	O=C(NC(=O)c1ccccc1Cl)Nc1ccc(OC(F)(F)F)cc1	1%
23	NCCCP(=O)(O)O	-6%
24	CCN1C[C@]2(COC(=O)c3ccccc3N3C(=O)C[C@H](C)C3=O)CC[C@H](OC)[C@@]34[C@@H]5C[C@H]6[C@H](OC)[C@H]5[C@](O)(C[C@@H]6OC)[C@@](O)([C@@H](OC)[C@@H]23)[C@@H]14	34%[activator]
25	Cc1cc(N2C(=O)C3CCCN3C2c2ccc(Cl)c(Cl)c2)no1 (stereo not given)	-1%
26	c1ccc(C2NCc3ccccc3-n3cccc32)cc1 (stereo not given)	1%
27	COc1cc2c(cc1OC)[C@]13CC[N@+]4(C)CC5=CCO[C@H]6CC(=O)N2[C@@H]1[C@@H]6[C@@H]5C[C@]34O	6%[11.4 µM]
28	c1cc2cc(c1)C[n+]1ccc(c3ccccc31)NCc1ccc(cc1)CNc1cc[n+](c3ccccc13)C2	-18%
29	COc1cc2c(cc1O)-c1c(O)c(OC)cc3c1[C@H](C2)N(C)CC3	32µM*
30	COC(=O)C(c1ccccc1)C1CCCCN1 (stereo not given)	5%
31	O=C(c1cc2ccccn2n1)N1CCN(Cc2ccccc2)CC1	?
32	S=P(C1CCCCC1)(C1CCCCC1)[C@H](c1cccnc1)N1CCCC1	-8%[11.4 µM]
33	O=C(O)[C@H]1[C@H]2CN[C@H](C(=O)O)[C@H]21	2%
34	Cc1ccc(C(=O)C2CN3CCC2CC3)cc1 (stereo not given)	12%
35	O=C(NCC(c1cccnc1)N1CCN(c2ccc(F)cc2)CC1)Oc1ccccc1 (stereo not given)	-1%
36	COc1ccc(CCN(C)Cc2ccncc2)cc1OC	5%
37	COCc1c(CN)cnc(C)c1N	-16%
38	Cc1cccc(-n2c(CN3C(=O)c4ccccc4C3=O)nc3ccccc3c2=O)n1	16%
39	COC(=O)COc1ccc(Cl)cc1Cl	1%
40	CCCc1cc2c(n1Cc1cccc(Cl)c1)C(C)C1CN(C(=O)c3ccccc3)C(C)(C(=O)OC)C21 (stereo not given)	-14%
41	O=NN(CCO)CCO	1%
42	CCOC(=O)N(CC)c1ccc(C(O)(C(=O)OC)C(F)(F)F)cc1 (stereo not given)	7%
43	Cc1ccc(-c2nc3ccccc3c(=O)n2-n2cccc2)cc1	5%
44	CC(C)Oc1cccnc1N(C)C1CCN(Cc2ccccc2)CC1	-3%
45	CN1CCC2=C[C@H](O)[C@@H]3OC(=O)c4cc5c(cc4[C@H]3[C@H]21)OCO5	5%[25.6 µM]
46	OC12CCCCC1C(c1ccccc1)NCC2 (stereo not given)	1%
47	CN1CCC(O)(c2ccccc2)C(C(=O)c2ccccc2)C1 (stereo not given)	-1%
48	CCC(=O)N1CC(=O)Nc2ccc(Cl)cc2C1c1ccc(F)cc1 (stereo not given)	0%
49	CN(C)C(=O)Nc1ccc(Cl)cc1	4%
50	O=P1(NCc2ccco2)COc2ccccc2OC1	6%
51	Clc1cc(Cl)c(Cl)c(Cl)c1	2%
52	O=S(=O)(O)F	4%
53	O=C(O)C[C@H]1OCC=C2CN3CC[C@@]45C6=CC(=O)C(=O)C([N+](=O)[O-])=C6N[C@H]4[C@H]1[C@H]2C[C@@H]35	-2%[11.4 µM]
54	COc1ccccc1N1CCN(Cc2ccc(Br)s2)CC1	-8%
55	Cc1cccc(C)c1N	3%
56	CCN1CCN(C(=O)COc2ccc(S(=O)(=O)N(C)Cc3ccccc3)cc2)CC1	9%
57	C/C=C1\C[N@@+]2(C)CC[C@@]34C(=C(C=O)[C@H]1C[C@H]32)Nc1ccccc14	?
58	CN1CCN(c2ccc(N)c(N3CCN(C)CC3)c2)CC1	2%
59	Cc1cc(OCC(=O)NC2CCS(=O)(=O)C2)c2c3c(c(=O)oc2c1)CCC3 (stereo not given)	16µM*
60	CCCCNC(=O)n1c(NC(=O)OC)nc2ccccc21	4%

# Continued.
No.	mol	HSD17B inh
61	COc1cc(OC)c(OC)cc1CNC(C)C(O)c1ccccc1 (stereo not given)	1%
62	NS(=O)(=O)c1ccc(-c2ccc([As](=O)(O)O)cc2)cc1	7%[11.4 µM]
63	Cc1ccc(OCC(=O)NCCN2CCN(C(=O)COc3ccc(C)cc3)CC2)cc1	-1%
64	BrC(Br)Br	2%
65	CS(=N)(=O)CC[C@H](N)P(=O)(O)O (stereo not given in full)	-1%[11.4 µM]
66	COc1cc2c3cc1Oc1c(O)c(OC)cc4c1[C@@H](Cc1ccc(cc1)Oc1cc(ccc1O)C[C@H]3N(C)CC2)N(C)CC4	0%[11.4 µM]
67	c1ccc2c(CCNCc3ccc4c(c3)OCO4)c[nH]c2c1	-11%
68	C[n+]1c(/C=C\c2ccc(O)c3ncccc23)[se]c2ccccc21	?
69	CC(C)CN1CC[C@@]2(CCCN(C(=O)c3ccncc3)C2)C1	2%
70	CCN(CC)CCN=Cc1c(O)n(C2CCCCCC2)c(=O)[nH]c1=O	-2%
71	O=C1C2CCCN2C(c2cccnc2)N1c1ccc(Cl)cc1 (stereo not given)	3%
72	FC(Cl)(Cl)Cl	1%
73	CC1COC2=C1C(=O)C(=O)c1c2ccc2c1CCCC2(C)C (stereo not given)	25µM*
74	O=C(O)[C@@H]1C[C@H]1[C@@H](NP(=O)(c1ccccc1)c1ccccc1)c1ccccc1	6%
75	CCCCCCCCCOc1ccc2[nH]cc(CCN)c2c1	-15%
76	CCC(C)C(=O)OC1C(O)C2C(CN3CC(C)CCC3[C@]2(C)O)C2C[C@]34O[C@@]5(O)C(OC(=O)C(C)(O)CC)CCC3(C)C5C(OC(C)=O)C(OC(C)=O)C4[C@@]21O (stereo not given in full)	0%
77	CN1CCC2(CC1)CCN(C(=O)Oc1ccccc1)CC2	-1%
78	O=C1NCN(c2ccccc2)C12CCNCC2	-2%
79	CC(=NCCN1CCCCC1)c1c(O)n(Cc2ccccc2)c(=O)[nH]c1=O	-2%
80	CC(=O)NNc1ccccc1	-2%
81	COc1ccc2[nH]c3c(c2c1)CCNC3	?
82	CC(=O)OCC1=C(C(=O)O)N2C(=O)[C@@H](N)[C@@H]2SC1	-9%[25.6 µM]
83	CCN1C[C@]2(C)CC[C@H](O)[C@@]34[C@@H]5CC6[C@@H](OC)C[C@@](O)([C@@H]5[C@@H]6O)[C@H](C[C@@H]23)[C@H]14	2%[25.6 µM]
84	COc1c(CC=C(C)C)c2c(c3oc(=O)c(-c4ccc(O)cc4)c(O)c13)C=CC(C)(C)O2	?
85	O=C(c1sc2ccccc2c1Cl)N1CCC2(CC1)OCCO2	2%
86	CC1CCC(C(=O)NC(C(=O)N2CCC3(CC2)OCCO3)C(C)C)CC1 (stereo not given)	3%
87	CC(C)[N+](=O)[O-]	-3%
88	O=C(O)C1C(C(=O)O)C2(Cl)C(Cl)=C(Cl)C1(Cl)C2(Cl)Cl (stereo not given)	-12%
89	CC(C)NC(=O)N1CCCC2(CCN(C(=O)Oc3ccccc3)CC2)C1	7%
90	C=Cn1ccnc1P(=S)(c1cc(N(CC)CC)ns1)c1nccn1C=C	2%
91	CCOP(=S)(OCC)SCSC(C)(C)C	-8%
92	O=C(Oc1ccccc1)N1CCC2(CCN(Cc3ccccc3)CC2)CC1	2%
93	CCCC[N+](=O)[O-]	5%
94	Cc1ccccc1O	1%
95	CCc1nnc(NC(=O)CCc2nc(C3=CCN(C)CC3)no2)s1	-2%
96	CC(C)(C)NC[C@@H](O)COc1cccc2[nH]c(C#N)cc12	-8%
97	CC(=O)C1C2c3ccccc3OC1(C)N=c1s/c(=C/c3cn(C)nc3C)c(=O)n12 (stereo not given)	-3%
98	O=C(Oc1ccccc1)N1CCC2(CC1)CCN(C(c1ccccc1)c1ccccc1)CC2	-9%
99	Clc1ccc(Cl)cc1	4%
100	Clc1cccc(Cl)c1Cl	9%
101	c1ccc(C[N+]23CN4CN(CN(C4)C2)C3)cc1	9%[11.4 µM]
102	CCOC(=O)N1CCN(C(C)C(=O)c2c[nH]c3ccccc23)CC1 (stereo not given)	2%
103	COc1cc2c(cc1OC)C(C(=O)N1CCC3(CC1)OCCO3)C(c1ccccc1F)N(C)C2=O (stereo not given)	-10%
104	COc1ccc(NC(=O)N2CCC3(CC2)CCN(C(=O)Oc2ccccc2)CC3)cc1	10%
105	CC1(C)C(c2ccccc2)=NC(c2cccnc2)=[N+]1[O-]	1%
106	O=c1cccc2n1CC1CC2CN(C(c2ccccc2)c2sc3ncnn3c2O)C1 (stereo not given)	0%
107	Cc1nc2ccc(Cl)cn2c1P(=S)(N1CCOCC1)N1CCOCC1	7%
108	O=C(Nc1cccc(F)c1)N1CC2(CCN(C(=O)Oc3ccccc3)CC2)C1	4%
109	CC(C)NC[C@H](O)c1ccc(N)c(C#N)c1	-18%
110	CC12CCCCC1N(O)CN2O (stereo not given)	16%
111	O=C(c1ccncc1)N1CCC2(CC1)CN(Cc1ccccc1)C2	3%
112	CC(C)OS(C)(=O)=O	-3%
